GLA inh pH 4.5: inhibitors of human alpha-galactosidase A at pH 4.5 | P06280 | purified enzyme, 4-MU-alpha-Gal fluorescence, pH 4.5 | activity change, negative = inhibition, % at 105 µM | 230,000 tested, under 10 active; inconclusive = small, poorly fitted or top-dose-only inhibition, or a rising curve; inactive = flat fitted curve, though single readings scatter; no compound was filed as active;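 note: 0% = full activity with enzyme and -100% = basal without enzyme; dose as in the result columns while the protocol names 77 µM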
Target sequence (P06280 whole entry, looked up): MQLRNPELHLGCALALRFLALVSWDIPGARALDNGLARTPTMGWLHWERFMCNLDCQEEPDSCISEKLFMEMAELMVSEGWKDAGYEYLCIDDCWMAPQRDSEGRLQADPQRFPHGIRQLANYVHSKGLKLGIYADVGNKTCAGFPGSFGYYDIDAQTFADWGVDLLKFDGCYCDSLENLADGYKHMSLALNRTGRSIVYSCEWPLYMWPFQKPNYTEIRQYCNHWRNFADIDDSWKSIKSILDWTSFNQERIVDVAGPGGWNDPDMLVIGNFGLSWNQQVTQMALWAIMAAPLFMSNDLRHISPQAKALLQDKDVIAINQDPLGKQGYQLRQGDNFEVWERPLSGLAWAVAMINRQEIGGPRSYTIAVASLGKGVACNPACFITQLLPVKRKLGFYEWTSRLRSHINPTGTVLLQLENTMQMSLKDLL
Rango dissoc inh: inhibition of RanGTP-driven Rango-importin beta dissociation. Biochemical FRET Rango-importin beta, RanGTP-induced dissociation. 0.071% of 340,000 active. O95149+P62826. Potency, µM (top dose mostly 46.1 µM), without a hit: at the highest dose activity change, negative = inhibition; active means falling FRET ratio curve, often poorly fitted, with flat reads before Ran was added; inconclusive means other falling curves, or compound fluorescence or quenching; inactive means flat or rising ratio curve;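 note: potency is the fitted concentration of half-maximal effect; % of control where 0% means no effect; nearly all actives have a fitted effect of over 45% in size; -100% = wells without RanGTP and RCC1; the record marks most hits as doubtful in a second field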
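Rango/importin beta premix (0.1/0.25 uM final), PBS + 1 mM DTT + 0.02% Tween-20 + 0.1% BSA; cpd 5 min RT; FRET pre-read; + RanGTP-RCC1 (0.6 uM Ran, 2 mM GTP, 0.2 uM RCC1); 45 min RT; FRET post-read, ex 430, em 486/530 nm.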
Rango-impB inh: inhibitors of Rango-importin beta complex formation; Q14974; Rango CFP/YFP FRET sensor + importin beta, 45 min; Potency, µM (titrated, usually from 92.2 µM), for the others: top-dose inhibition of complex formation; 0.031% of 340,000 active; AID 540263; active = rising FRET ratio curve, often small or poorly fitted; inconclusive = mostly compound fluorescence or quenching in the first reads; inactive = flat curves in all reads;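 note: potency is the fitted concentration of half-maximal effect; 0% = DMSO wells and 100% = buffer wells lacking importin beta; nearly all actives have a fitted effect of over 15% in size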
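FRET biosensor (snurportin 1 IBB flanked by EYFP and cerulean), 50 nM, with compound 5 min, then 0.125 microM importin beta in PBS, 1 mM DTT, 0.02% Tween-20, 0.1% BSA. CFP/YFP ratio read after 45 min at room temperature; pre-read flags interference.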
miR-21 reporter: raises the signal of a miR-21 reporter | 340,000 tested, under 10 active | HeLa miR-21 FLuc reporter, luciferase, 48 h | AID 2288 | Potency, µM (titrated, usually from 38.3 µM), without a hit: at the highest dose reporter change, positive = more light; active = well fitted rising curve with a large enough effect; inconclusive = small, poorly fitted or top-dose-only effect; inactive = no such curve, though single readings can be large or run the other way;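 note: % of control where 0% means no effect; miR-21 action dims this reporter so a rising signal means less miR-21 action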
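HeLa miR-21-FLuc reporter line, endogenous miR-21; 2000 cells/well in DMEM/10% FBS; compound titration up to ~40uM final, 48 h, 37 degree Celsius; luciferase detection reagent, 15 min lysis, CCD luminescence.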
Starred values were filed as active, the others as inactive; ? = inconclusive; · = not tested or not shown; & = joins results of further samples. This is a subset; rates above refer to the full screens.

SMILES	GLA inh pH 4.5	Rango dissoc inh	Rango-impB inh	miR-21 reporter
NNC(=O)c1ccc(Cn2cc(Br)cn2)cc1	-1	24%	4.4%	13%
CCOC(=O)N1CCC(N2C(=O)c3ccccc3C2Nc2cc(C(=O)OC)cc(C(=O)OC)c2)CC1 (configuration not stated)	-6	2%	-2.5%	-1%
O=C(Nc1ccccn1)c1cc2ccccc2cc1O	·	?	?	-58%
O=C(COc1ccc(Cl)cc1Cl)c1ccc[nH]1	-1	3%	0.2%	-66%
CN(C(=O)c1cccc(NC(=O)Cc2ccc(NC(=O)C3CCCN(C(=O)C4CCCC4)C3)cc2)c1)C1CC1 (configuration not stated)	·	9%	-4.2%	·
CCCCNc1ccc2c3c(cccc13)C(=O)N(CCCC)C2=O	-4	?	?	8%
CC(=O)Nc1ccc(C(=O)N(C)C(C(=O)Nc2ccccc2)c2ccccn2)cc1 (configuration not stated)	-10	3%	-3.1%	-2%
Cc1cc2nn(-c3ccc(Cl)cc3)nc2cc1N	·	?	?	-21%
Cc1ccc(N2C(=O)C(CN3CCCC3)C2c2ccccc2)cc1 (configuration not stated)	-2	-6%	1.7%	-11%
COC(=O)c1ccc(NC(=O)Cn2c(-c3nonc3N)nc3ccccc32)cc1	-7	-3%	1.3%	-41%&-17%
CC(C1CCN(Cc2cn(C)nc2-c2cccc(Cl)c2)CC1)N1CCOCC1 (configuration not stated)	2	0%	5.2%	-2%
Cc1c(Cl)cccc1NC(=O)Nc1c(C)n(C)n(-c2ccccc2)c1=O	·	9%	4.2%	-4%
Cc1occc1C(=O)N1CCN(Cc2ccccc2)CC1	4	-9%	?	-1%
CC(C)NC(=O)CCCc1c[nH]c2ccccc12	1	-4%	1.9%	-6%
CCOC(=O)c1nnn(-c2nc(OC)nc(N3CCCC3)n2)c1-c1ccccc1	6	-7%	-1.9%	-5%
COC(=O)Cc1cc(=O)n2[nH]c(C)cc2n1	13	-4%	-0.3%	0%
OC(COCc1ccco1)CN1CCN(c2ccccc2)CC1 (configuration not stated)	9	11%	12%	-4%
CCn1c(Cc2ccccc2)nnc1SCC(=O)Nc1ccccc1F	10	1%	1.6%	1%
S=c1[nH]nc(C2CC2c2ccc(Cl)cc2)n1-c1ccc(Cl)cc1 (configuration not stated)	-16	-2%	2.4%	15%
Cc1nn(CC(=O)Nc2nc3ccccc3s2)c(C)c1[N+](=O)[O-]	9	1%	-1.9%	-15%

Laid out differently: entries from further up.
> CC(=O)Nc1ccc(C(=O)N(C)C(C(=O)Nc2ccccc2)c2ccccn2)cc1 (configuration not stated)
  GLA inh pH 4.5 = -10 | Rango dissoc inh = 3% | Rango-impB inh = -3.1% | miR-21 reporter = -2%
> Cc1cc2nn(-c3ccc(Cl)cc3)nc2cc1N
  GLA inh pH 4.5 = · | Rango dissoc inh = ? | Rango-impB inh = ? | miR-21 reporter = -21%

The listing continues.
SMILES	GLA inh pH 4.5	Rango dissoc inh	Rango-impB inh	miR-21 reporter
COC(C[C@@H](O)[C@H](C)[C@@H](O)COCc1ccccc1)OC	7	10%	1.0%	1%
c1ccc(SCc2nc3ccccc3s2)nc1	·	?	-5.1%	-60%
O=C(NCc1ccccc1C(F)(F)F)C1CC(c2ccccc2[N+](=O)[O-])=NO1 (configuration not stated)	-8	1%	-2.4%	-13%
C/C(=C\COc1ccc2ccc(=O)oc2c1)CC[C@@H](O)C(C)(C)O	·	-3%	-3.9%	·
COC(=O)CSc1ccc2nnc(-c3ccc(OC)c(OC)c3)n2n1	9	-2%	-2.2%	-6%
COc1ccc2oc(=N)c(C(=O)Nc3cccc(C)c3C)cc2c1	·	1%	3.6%	-36%
Cc1cccc(N2CCN(C(=O)C3CCCCC3)CC2)c1C	-3	0%	-1.9%	1%
CN(CC(=O)Nc1ccc(Cl)cc1)CC(=O)Nc1ccc(F)c(F)c1F	13	18%	3.9%	-2%
COc1cc(OC)cc(C(=O)NC(=S)Nc2ccc3oc(=O)ccc3c2)c1	·	7%	0.2%	0%
CCOC(=O)C1CCN(CC(C)(C)NS(=O)(=O)c2ccccc2)CC1	·	-1%	-0.6%	-1%

Single values from the list.
GLA inh pH 4.5, `S=c1[nH]nc(C2CC2c2ccc(Cl)cc2)n1-c1ccc(Cl)cc1` (configuration not stated) : -16
Rango-impB inh, `CCOC(=O)c1nnn(-c2nc(OC)nc(N3CCCC3)n2)c1-c1ccccc1` : -1.9%
Rango dissoc inh, `COc1ccc2oc(=N)c(C(=O)Nc3cccc(C)c3C)cc2c1` : 1%
miR-21 reporter, `Cc1cc2nn(-c3ccc(Cl)cc3)nc2cc1N` : -21%
miR-21 reporter, `Cc1ccc(N2C(=O)C(CN3CCCC3)C2c2ccccc2)cc1` (configuration not stated) : -11%
GLA inh pH 4.5, `CCCCNc1ccc2c3c(cccc13)C(=O)N(CCCC)C2=O` : -4
miR-21 reporter, `CC(=O)Nc1ccc(C(=O)N(C)C(C(=O)Nc2ccccc2)c2ccccn2)cc1` (configuration not stated) : -2%

Next entries follow:
SMILES	GLA inh pH 4.5	Rango dissoc inh	Rango-impB inh	miR-21 reporter
Cc1ccc(Cn2nc(C)c(C(=O)N3CCN(S(=O)(=O)/C=C/c4ccccc4)CC3)c2C)cc1	·	3%	1.3%	·
O=C(CNC(=O)c1ccc(F)cc1)NCc1ccccn1	·	-1%	?	·
O=C(NCCCCCNC(=O)c1ccccn1)c1ccccn1	-2	-7%	-3.1%	-1%
COc1cccc(NC(=O)c2oc3ccccc3c2NC(C)=O)c1	4	2%	-1.6%	-37%
COc1ccc(N(CC(=O)NCc2ccco2)S(C)(=O)=O)c(OC)c1	11	-2%	0.9%	-4%
Cc1ccc(S(=O)(=O)NC(CC(C)C)C(=O)Nc2nccs2)cc1 (configuration not stated)	10	3%	?	0%
COc1ccnc(Oc2ccc(F)cc2)c1C(=O)N/C=N/OCc1ccccc1	-1	3%	-0.1%	-1%
CSc1cccc(N2CC(C(=O)N(Cc3nnc(-c4ccccc4Cl)o3)C3CC3)CC2=O)c1 (configuration not stated)	·	-3%	-0.2%	4%
CCN1CCN(C(=O)CN2C(=O)c3ccccc3S2(=O)=O)CC1	·	-6%	2.3%	·
CCN(CC)CCCN=C1N[C@@H](c2ccccc2)C(C(=O)OC)=C(C)N1CC	·	19%	3.0%	1%&-2%

Reprinted from the entries so far (3 entries):
SMILES	GLA inh pH 4.5	Rango dissoc inh	Rango-impB inh	miR-21 reporter
Cc1ccc(Cn2nc(C)c(C(=O)N3CCN(S(=O)(=O)/C=C/c4ccccc4)CC3)c2C)cc1	·	3%	1.3%	·
O=C(CNC(=O)c1ccc(F)cc1)NCc1ccccn1	·	-1%	?	·
O=C(NCCCCCNC(=O)c1ccccn1)c1ccccn1	-2	-7%	-3.1%	-1%

Continuation.
SMILES	GLA inh pH 4.5	Rango dissoc inh	Rango-impB inh	miR-21 reporter
Cc1cccnc1Nc1nc(-c2ccccn2)cs1	-12	7%	-4.6%	18%
COc1ccccc1CN1CC(C(=O)N(C)Cc2ccc(C)o2)CCC1=O (configuration not stated)	·	-1%	0.2%	-13%
CCOc1cccc(C(=O)NC2=NCCS2)c1	·	-15%	-4.8%	-23%
CCC(=O)Nc1ccc(C(=O)NNC(=O)c2ccc(Cl)cc2)cc1	·	-1%	0.8%	1%
Nc1ncnc2nc(SCCc3ccccc3)[nH]c12	-2	8%	-1.7%	-40%
COc1ccc(NS(=O)(=O)c2cc(NC(=O)C3CCCO3)ccc2N2CCCC2)cc1 (configuration not stated)	3	-11%	-0.8%	11%
O=C1OCCN1C(=O)[C@H]1[C@H](c2ccc(Cl)cc2)C(c2cccc(Cl)c2)=NN1c1ccc(Br)cc1	?	?	?	·
O=C(CNC(=O)c1ccc(Cl)cc1)NC1CCCCC1	·	-7%	-2.0%	-5%
COc1ccc(CCNC(=O)C2CCN(S(=O)(=O)c3c(C)noc3C)CC2)cc1OC	1	8%	3.6%	-4%
COC(=O)c1cc(COC(=O)c2cccnc2SC)oc1C	2	-6%	-3.6%	0%
CCCCn1c(SCC(=O)N2CCOCC2)nc2ccccc2c1=O	·	11%	-0.8%	15%
CCC(NC(=O)Nn1cnnc1)(C(F)(F)F)C(F)(F)F	0	2%	2.3%	2%
Cc1csc(NC(=O)CCn2c(=O)oc3ccccc32)n1	0	1%	?	-7%
COc1ccccc1NC(=O)C1=C(C)Nc2nnnn2C1c1cc(Br)ccc1OC (configuration not stated)	2	16%	-4.0%	15%
COc1ccc(NC(=O)c2ccc3[nH]c(=O)c(=O)[nH]c3c2)c(OC)c1	·	-5%	-3.4%	0%
COCCN1C(=O)N[C@@H](c2cccc(C(F)(F)F)c2)C(C(=O)OC)=C1C	-9	4%	1.2%	·
CC(=O)N1c2ccccc2C(CBr)=CC1(C)C	-1	-5%	0.6%	12%
CC(=O)NS(=O)(=O)c1ccc(NS(=O)(=O)c2ccccc2[N+](=O)[O-])cc1	-13	0%	-2.9%	3%
Cc1c(CN(C)C)c2c(n1Cc1ccccc1)C(=O)c1ccc(Br)cc1-2	-4	-5%	-1.9%	26%
CCN(CC)S(=O)(=O)c1cccc(NC(=O)CN2C(=O)c3ccc([N+](=O)[O-])cc3C2=O)c1	6	-2%	-1.4%	-11%
O=C(CCNS(=O)(=O)c1ccc(Br)cc1)NNC(=O)C1COc2ccccc2O1 (configuration not stated)	·	-7%	-0.6%	·
Cc1ccc(NC(=O)CSc2nnc(-c3cnccn3)n2C)cc1C	·	-10%	-0.2%	-2%
CCc1ccccc1Nc1nc(N)nc(CSc2nnc3ccccn23)n1	-1	-2%	-1.3%	-3%
COc1cc(NC(=S)N2CCCC(C)C2)c(OC)cc1Cl (configuration not stated)	2	2%	-0.9%	-21%
CC(=O)Nc1c(NCC(C)C)c2ccccc2oc1=O	-11	-22%	-0.4%	-2%
CC(C)CSc1nnc(N)s1	-2	2%	0.9%	-11%
O=C(CSc1nc(-c2ccc(F)cc2)cs1)NC(=O)NCc1ccco1	3	-8%	-0.3%	2%
O=C(CCC(NC(=O)OCc1ccccc1)C(=O)O)OCc1ccccc1 (configuration not stated)	·	-1%	3.1%	1%
Cc1ccccc1S(=O)(=O)NC1OC(=O)C(Cl)=C1Cl (configuration not stated)	5	-2%	4.4%	5%
Cc1nc([N+](=O)[O-])c(NCCO)n1Cc1ccccc1	2	-7%	-1.7%	0%
Cc1ccccc1C(=O)N/N=C/c1ccncc1	9	-5%	1.9%	-17%
COc1ccc(NC(=O)c2ccc(COc3ccccc3OC)o2)cc1OC	7	-20%	0.5%	7%&1%
C=CCn1c(-c2ccccc2)nc2nc3ccccc3nc21	-5	6%	4.2%	-26%
COc1ccc(C(=O)CN2C(=O)c3ccccc3S2(=O)=O)cc1Br	·	-10%	-2.2%	0%

Screens from PubChem BioAssay.
